HCMV NEC inh = inhibitors of HCMV UL50-UL53 interaction, biochemical, HTRF. HCMV UL50-UL53 nuclear egress complex (human cytomegalovirus). normalized percent inhibition. inhibition, % (no concentration beside the values). 190,000 tested, 0.15% active. AID 1918969, 2023;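 active means both replicates at 50% or more, plus weaker picks with an unusually low signal ratio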;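 further: stock transfer was 100 nL into about 20 µL; 0% = negative control wells and 100% = wells with untagged competitor protein; inactives centre near -12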
Sa growth inh = S. aureus growth inhibition at 42 and 30 °C, primary screen, LtaS inhibitor project, RN4220, two temperatures; OD600, 20 h, 42 °C; stronger effect = lower value; relative growth, % (test concentration not listed); 170,000 tested, 0.53% active; AID 720641, 2013;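 active means growth at 42 °C up to 50% and 20 or more points under that at 30 °C, or under 10% at both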;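 further: 300 nL library stock went into each well; scaled to the means of positive and negative controls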
GIV Gai3 FP = inhibitors of GIV peptide binding to Galpha-i3, primary screen, biochemical, fluorescence polarization, FITC-GIV GBA peptide, rat Galphai3 | AID 1224905, 2016 | 90 min; stronger effect = lower value; scaled: aluminum fluoride 0%, vehicle 100% | percent of control (FP), % (no concentration beside the values) | 210,000 tested, 0.42% active;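 active means replicate mean at 85% of control or lower, very high polarization wells dropped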;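 further: wells of about 15 µL received 100 nL stock; the first replicate is given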
Target sequence (P08753 whole entry, looked up): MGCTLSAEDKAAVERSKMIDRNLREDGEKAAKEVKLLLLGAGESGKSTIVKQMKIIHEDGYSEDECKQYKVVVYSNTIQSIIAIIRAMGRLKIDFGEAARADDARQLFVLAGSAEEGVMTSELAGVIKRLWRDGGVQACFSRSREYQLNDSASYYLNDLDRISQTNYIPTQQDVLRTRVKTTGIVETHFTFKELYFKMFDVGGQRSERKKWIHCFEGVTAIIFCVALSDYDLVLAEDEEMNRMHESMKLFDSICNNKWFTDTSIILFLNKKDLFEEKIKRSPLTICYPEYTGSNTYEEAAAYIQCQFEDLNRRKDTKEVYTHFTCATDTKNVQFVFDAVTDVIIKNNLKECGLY
Sa growth inh second temp = also measured in Sa growth inh; calls as there; relative growth, %; measured here: growth at 30 °C;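 optical density after 20 h as mean of two plates; 100% = untreated growth and lower means inhibition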
Numbers without * were called inactive; / = not tested or not shown; & = joins results of further samples.

cpd | SMILES | HCMV NEC inh | Sa growth inh | Sa growth inh second temp | GIV Gai3 FP
1 | COc1cccc(-n2c(-c3ccc(C)cc3)cc3c2CC(C)(C)CC3=O)c1 | -20 | 108 | 88 | 99
2 | CN1c2ccccc2N(Cc2ccccc2)C(=O)C1(C)C | 0 | 96 | 74 | 101
3 | O=C(c1ccccc1)c1c(CS(=O)(=O)c2ccc(C(F)(F)F)cn2)[nH]n(-c2ccccc2)c1=O | -1 | 107 | 100 | 102
4 | Clc1ccc(Nc2nc(C3CC3)cs2)cc1 | -22 | 57 | 56 | 97
5 | COc1ccc(CC(=O)Nc2nc(-c3ccccc3)cs2)cc1 | 5 | 75 | 97 | /
6 | CCc1cc(=O)n2[nH]c(NCc3ccccc3F)nc2n1 | -17 | / | / | 96
7 | CS(=O)(=O)N(CC(=O)Nc1ccc(S(=O)(=O)N2CCCC2)cc1)c1ccc2c(c1)OCO2 | -33 | 97 | 99 | 111
8 | CCOC(=O)c1cccc(NC(=O)CNC(=O)C2CCCCC2)c1 | 7 | 120 | 96 | /
9 | O=C(O)CCc1nc2cc(Cl)ccc2n(Cc2ccccc2)c1=O | -62 | 108 | 94 | /
10 | Clc1ncc(CN2CCCc3ccccc32)s1 | -22 | / | / | 103
11 | COc1ccc(-c2cn3cc(Cl)ccc3n2)cc1 | -4 | / | / | 96
12 | Cc1ccc(C(CN2CCOCC2)c2nc(-c3ccccc3)nn(CN3CCOCC3)c2=O)cc1 (stereo unspecified) | -18 | 98 | 98 | 100
13 | COc1ccc(C2CC(=O)N(c3cccc(Cl)c3)C(=O)C2)cc1OC | 9 | / | / | 97
14 | c1ccc(N=c2scc(-c3cccs3)n2-c2ccccc2)cc1 | / | 111 | 83 | 106
15 | COc1cccc(C2=Nc3cc(C)c(C)cc3NC(=S)C2)c1 | -35 | / | / | 100
16 | O=C(CSC1=NCCCCC1)c1ccccc1 | -5 | 87 | 64 | 102
17 | COc1ccc(/C=C\c2onc(C)c2S(=O)(=O)N2CCC(C(=O)Nc3ccc(F)cc3F)CC2)cc1 | -41 | 96 | 92 | 105
18 | O=C(Nc1c(C(=O)N2CCCCC2)cnn1-c1ccccc1)c1ccccc1 | -5 | 78 | 91 | /
19 | COc1ccc(Br)cc1C(=O)CCC(=O)O | -10 | 106 | 92 | /
20 | O=C(NCCO)c1c(Cl)cccc1Cl | 6 | 99 | 98 | 111
21 | CNC(=O)COCc1cc(-c2ccc3c(c2)OCO3)on1 | -5 | / | / | 101
22 | O=C(O)c1ccc(OCc2cn3ccccc3n2)cc1 | -38 | 108 | 88 | /
23 | CSc1nc(Nc2ccc(C)cc2C)cc(-c2ccccc2)n1 | -32 | 89 | 82 | 99
24 | O=C(Nc1c2c(nn1-c1ccc(Cl)cc1)CSC2)c1ccc(C(=O)c2ccccc2)cc1 | / | 88 | 69 | 101
25 | CNc1nc(OCC#N)nc(N2CCCCC2)n1 | 10 | 92 | 80 | 95
26 | CCC1SC2=NCCN2C1(O)c1ccc(Cl)cc1 (stereo unspecified) | -1 | 107 | 80 | /
27 | NS(=O)(=O)c1ccc(NC(=O)COc2ccc(S(=O)(=O)NC3CCCCC3)cc2)cc1 | -13 | 92 | 86 | 106
28 | Cc1ccc(Cn2c(CCCNC(=O)c3ccco3)nc3ccccc32)cc1 | 8 | 103 | 92 | 106
29 | Cc1cc(C(=O)Cn2nnc(-c3cccc(F)c3)n2)c(C)n1C1CCS(=O)(=O)C1 (stereo unspecified) | -11 | 90 | 95 | /
30 | CC1(C)c2ssc(=S)c2-c2ccccc2N1C(=O)CSc1nc2ccccc2o1 | -24 | / | / | 106

Ordered by the number under Sa growth inh second temp (lowest first): three from the list above.
No.	smiles	Sa growth inh second temp
24	O=C(Nc1c2c(nn1-c1ccc(Cl)cc1)CSC2)c1ccc(C(=O)c2ccccc2)cc1	69
1	COc1cccc(-n2c(-c3ccc(C)cc3)cc3c2CC(C)(C)CC3=O)c1	88
3	O=C(c1ccccc1)c1c(CS(=O)(=O)c2ccc(C(F)(F)F)cn2)[nH]n(-c2ccccc2)c1=O	100

Structural class, the entries above with an aryl thioether with sulfur outside any ring (2)
cpd | SMILES | HCMV NEC inh | Sa growth inh | Sa growth inh second temp | GIV Gai3 FP
23 | CSc1nc(Nc2ccc(C)cc2C)cc(-c2ccccc2)n1 | -32 | 89 | 82 | 99
30 | CC1(C)c2ssc(=S)c2-c2ccccc2N1C(=O)CSc1nc2ccccc2o1 | -24 | / | / | 106

(listing goes on)
cpd | SMILES | HCMV NEC inh | Sa growth inh | Sa growth inh second temp | GIV Gai3 FP
31 | CCCn1c(Sc2nnnn2-c2ccccc2)nc2ccccc2c1=O | -28 | 99 | 95 | /
32 | O=C(Nc1cccc(C(F)(F)F)c1)C(SCCO)c1ccccc1 (stereo unspecified) | -14 | 84 | 97 | /
33 | CN1CCN(S(=O)(=O)c2cccc3cccnc23)CC1 | -21 | 80 | 85 | /
34 | CN(C)CCOC(=O)c1ccc2[nH]c3c(c2c1)CSCC3 | / | 98 | 115 | 100
35 | Cc1ccc(N2NC(=O)/C(=C/C=C/c3ccco3)C2=O)cc1C | / | 85 | 79 | 114
36 | O=c1sc(Nc2ccccc2)nc2ccccc12 | -11 | 107 | 74 | 106
37 | O=C1CCCN1c1ccc(S(=O)(=O)Nc2ccc(Cc3ccncc3)cc2)cc1 | 2 | 114 | 101 | 109
38 | Cc1ccc(/C=C(\C#N)C(=O)NC2CCCCCC2)o1 | -20 | 97 | 86 | 107
39 | COc1ccc(CCN(/C=C2/Sc3ccccc3C2=O)C(C)=O)cc1OC | -21 | / | / | 96
40 | Cc1ccc2oc3c(c(=O)c2c1)C(c1cccc(O)c1)N(Cc1ccccc1Cl)C3=O (stereo unspecified) | 8 | 89 | 92 | 102
41 | Cc1ccc(CNC(=O)CC(C)S(=O)(=O)c2cc3c(cc2C)NC(=O)CO3)cc1 (stereo unspecified) | / | 106 | 88 | 110
42 | CCN1CCN(C(c2ccccc2)c2c(O)cc(C)n(CCOC)c2=O)CC1 (stereo unspecified) | / | 87 | 93 | 98
43 | O=C(CN(Cc1ccccc1)S(=O)(=O)c1ccc(Br)cc1)N1CCN(c2ccccc2F)CC1 | 1 | / | / | 105
44 | CCOc1ccc(NC(=O)C2CCCN(S(=O)(=O)c3c(C)[nH]c(=O)[nH]c3=O)C2)cc1 (stereo unspecified) | -17 | 95 | 88 | 106
45 | Cc1ccsc1CN(Cc1ccco1)C(=O)c1ccc(Cl)cc1 | -30 | 88 | 59 | 100
46 | CCn1c(C(C)NC=O)nc2ccccc21 (stereo unspecified) | -14 | 85 | 104 | 99
47 | O=C(CCN1C(=O)NC2(CCCC2)C1=O)Nc1nc(-c2ccccc2)cs1 | -25 | 71 | 94 | /
48 | COc1ccc(-c2nc3scc(CCNS(=O)(=O)c4ccc(F)c(C(F)(F)F)c4)n3n2)cc1OC | / | 117 | 96 | 98
49 | Cc1nnc(SCC(=O)NCC2CCCCC2)n(N)c1=O | 4 | 82 | 101 | /
50 | NC(N)=NS(=O)(=O)c1ccc(N)cc1 | -41&-26&10 | 80 | 85 | /
51 | COc1ccccc1OCc1ccc(C(=O)NCC(C)C)o1 | -14 | 98 | 83 | /
52 | NC(=S)N/N=C/CCn1c(=S)sc2ccccc21 | 1 | 103 | 55 | 98
53 | CCn1cc(S(=O)(=O)Nc2cc(C(C)(C)C)on2)cn1 | -17 | 118 | 96 | 105
54 | C/C(=N\NC(=O)c1ccc(Cl)cc1Cl)c1ccc(C)o1 | -54 | 107 | 91 | /
55 | CN(C)c1ccc(C(=O)OCC(=O)C23CC4CC(CC(C4)C2)C3)cc1 | -6 | 95 | 102 | /
56 | Cc1ccccc1C(=O)Nc1cc(C)c2c(=O)oc3ccccc3c2n1 | / | 77 | 86 | 109
57 | COc1ccc(OC)c(CNC(=O)c2ccc3cnn(Cc4ccc(Cl)cc4)c3c2)c1 | -19 | / | / | 105
58 | COc1cccc(C2C3=C(CC(C)(C)CC3=O)Nc3onc(C)c32)c1 (stereo unspecified) | -30 | / | / | 109
59 | O=C(COc1ccc(-c2nnc(N3CCCCC3)c3ccccc23)cc1)N1CCCCC1 | / | 77 | 98 | 105
60 | CCN(C(=O)c1ccc(N2C(=O)CCS2(=O)=O)cc1Cl)C1CCS(=O)(=O)C1 (stereo unspecified) | -21 | / | / | 107

Pulled one by one from the entries so far, 2 records:
cpd | SMILES | HCMV NEC inh | Sa growth inh | Sa growth inh second temp | GIV Gai3 FP
2 | CN1c2ccccc2N(Cc2ccccc2)C(=O)C1(C)C | 0 | 96 | 74 | 101
8 | CCOC(=O)c1cccc(NC(=O)CNC(=O)C2CCCCC2)c1 | 7 | 120 | 96 | /

Next records
The line under a structure holds: HCMV NEC inh, Sa growth inh, Sa growth inh second temp, GIV Gai3 FP
[61] CNC(=O)N(Cc1cccnc1)Cc1cccc(Cl)c1Cl
→ 1, 98, 90, 108
[62] Cc1ccc(NC(=O)CSCc2c(C#N)c(C)nn2-c2ccccc2)c(Cl)c1
→ -11, 93, 84, /
[63] CCOC(=O)CCc1ccc(OCc2ccccc2)c(I)c1
→ -5, 91, 90, 100
[64] CCCC(=O)n1nc(NCc2ccccc2)nc1NCc1ccccc1
→ -6, 119, 110, 111
[65] COC(=O)c1sccc1NC(=O)COCc1cc(-c2cccs2)on1
→ -12, 96, 102, 110
[66] COc1ccc(NC(=O)CSc2nc3ccccc3n2CC(=O)NCc2ccc(F)cc2)cc1
→ /, 86, 49, 101
[67] CCN1C(=O)/C(=C\c2ccc(C(C)C)cc2)SC1=S
→ /, 82, 91, 102
[68] CCN(CC)C(=O)Cn1nc(C)c(S(=O)(=O)N2CCCCC2)c1C
→ -8, 95, 91, /
[69] CN(C(=O)c1cnccn1)c1c(N)n(Cc2ccccc2)c(=O)[nH]c1=O
→ -15, 86, 91, /
[70] CC(C)(C)n1nc2c(c1N)CSC2
→ -21, 92, 83, 103
[71] CC(C)(C)OC(=O)N1CCc2nc(Nc3ccccc3)ncc2C1
→ -24, 107, 78, 106
[72] N#Cc1c(NC(=O)c2cnn3c(C(F)(F)F)cc(-c4ccco4)nc23)sc2c1CCCC2
→ -23, 100, 82, 104
[73] CCCN1C(=O)C2(c3ccccc31)c1c(oc3ccc(F)cc3c1=O)C(=O)N2CCCOC(C)C (stereo unspecified)
→ -9, 88, 89, 105
[74] CCC(=O)N1CCc2cc(Br)cc(S(=O)(=O)CCC(=O)N3CCN(c4cc(C)ccc4C)CC3)c21
→ -18, 99, 87, 105
[75] Cc1cc(NC(=O)/C(C#N)=C/c2ccc(-c3cccc(C(F)(F)F)c3)o2)n(-c2ccccc2)n1
→ -3, 101, 93, /

Remaining list, next part.
The line under a structure holds: HCMV NEC inh, Sa growth inh, Sa growth inh second temp, GIV Gai3 FP
[76] COc1ccc(C)cc1NC(=O)c1cc(S(=O)(=O)N2CCN(c3cccc(C)c3C)CC2)ccc1F
→ /, 108, 99, 109
[77] CCCCN1C(=O)N(c2nnc(C(C)(C)C)s2)C(O)C1c1ccc(C)cc1 (stereo unspecified)
→ 8, 97, 98, 107
[78] CCOC(=O)c1c(NC(=O)c2cc3nc(-c4ccc(OC)cc4)cc(C(F)(F)F)n3n2)sc2c1CCC(C)C2 (stereo unspecified)
→ /, 98, 89, 101
[79] CC(=O)N1CCOc2cc(S(=O)(=O)NC(C)c3ccccc3)c(Cl)cc21 (stereo unspecified)
→ /, 108, 105, 106
[80] Cc1ccccc1CSc1nc2ccsc2c(=O)n1CCC(C)C
→ /, 80, 81, 103
[81] CCOc1ccc(CNC(=O)Cn2c(=O)c3cccn3c3ccc(F)cc32)cc1
→ 7, 109, 83, 99
[82] Cc1ccc2cccc(OCC(=O)N3C(C)CCCC3C)c2n1 (stereo unspecified)
→ -20, 119, 81, /
[83] CCNc1nc(NC2CC2)nc(N(C)C#N)n1
→ -37, 102, 99, 100
[84] Cc1cccc(Cn2nc(C)c(NC(=O)c3ccncc3)c2C)c1
→ -22, 99, 101, 107
[85] CC1CC(C)CN(CCCNc2cnnc3c(Cl)cccc23)C1 (stereo unspecified)
→ -39, 92, 102, 111
[86] C=CCSc1nn(CCC)c2nc3c(c(=O)n12)C(C)(C)Cc1ccccc1-3
→ 0, /, /, 105
[87] Nc1ccc2oc3ccccc3c2c1
→ 24, 117, 112, /
[88] Cc1ccc(N(Cc2ccc(C(=O)O)cc2)S(C)(=O)=O)cc1C
→ -17, 92, 90, /
[89] Cc1c(-c2nc(-c3ccc4c(c3)OCO4)no2)nnn1-c1ccc(Br)cc1F
→ /, 110, 92, 107
[90] Nc1cc(=O)nc(SCC(=O)Nc2ccccc2)n1-c1ccccc1
→ -2, 110, 89, 100

Continued.
The line under a structure holds: HCMV NEC inh, Sa growth inh, Sa growth inh second temp, GIV Gai3 FP
[91] O=C(NC1CCCC1)c1ccc2ncsc2c1
→ 2, 109, 97, /
[92] CCC(Sc1nncn1C)C(=O)Nc1ccc([N+](=O)[O-])cc1 (stereo unspecified)
→ -23, /, /, 105
[93] Cc1ccc(CN2CCCn3nc(C(=O)NCCC(C)C)cc3C2=O)cc1
→ /, 98, 92, 102
[94] COc1ccccc1N1CCN(c2ccc3cc(S(=O)(=O)N4CCCCC4)ccc3n2)CC1
→ /, 104, 97, 105
[95] COc1ccc(N(Cc2nnc3n2CCCCC3)C(=O)Nc2ccc(Cl)cc2)cc1Cl
→ /, 83, 88, 104
[96] COc1ccc(N2CCN(C(CNS(=O)(=O)c3ccc(OC)c(C)c3)c3ccco3)CC2)cc1 (stereo unspecified)
→ /, 111, 94, 98
[97] O=C(COc1ccccc1)Nc1ccc2nc(SCC(=O)N3CCc4ccccc43)sc2c1
→ 6, 89, 92, 97
